Screens (PubChem BioAssay)
STK33 kinase inh: inhibitors of human STK33 kinase; Q9BYT3; purified STK33, MBP phosphorylation, ADP-Glo luminescence; inhibition, % at 10 µM; 320,000 compounds, 0.073% hits; AID 2661;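 active = inhibition at or above 25%, using the most active replicate where run in duplicate; inactive = inhibition below 25%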
Target sequence (Q9BYT3 whole entry, looked up): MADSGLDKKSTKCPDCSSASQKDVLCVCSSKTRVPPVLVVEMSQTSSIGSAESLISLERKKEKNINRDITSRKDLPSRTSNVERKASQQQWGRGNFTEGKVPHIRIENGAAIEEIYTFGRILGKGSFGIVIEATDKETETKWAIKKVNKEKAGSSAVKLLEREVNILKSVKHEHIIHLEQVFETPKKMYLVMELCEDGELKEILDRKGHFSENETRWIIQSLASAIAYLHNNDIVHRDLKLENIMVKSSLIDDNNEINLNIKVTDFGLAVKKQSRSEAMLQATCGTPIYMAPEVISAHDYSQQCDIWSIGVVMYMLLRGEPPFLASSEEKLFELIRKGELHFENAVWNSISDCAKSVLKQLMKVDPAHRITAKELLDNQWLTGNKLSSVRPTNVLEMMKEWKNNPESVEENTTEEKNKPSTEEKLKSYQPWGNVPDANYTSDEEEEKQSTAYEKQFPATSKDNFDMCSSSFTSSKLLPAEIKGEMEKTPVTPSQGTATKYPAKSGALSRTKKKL
Active calls of the source: *. An excerpt, and most or all hits are left out here.

What do the screens show for `CC1CCN(CC(C)OC(=O)c2ccc3c(c2)OCCO3)CC1` (configuration not stated)?
STK33 kinase inh: -0.3

How did COc1nc(N)c(S(=O)(=O)c2ccccc2C)cc1C#N do in these assays?
STK33 kinase inh: -0.7

How did O=S(=O)(NCCCN1CCOCC1)c1ccc(Cl)s1 do in these assays?
STK33 kinase inh: -0.5

Results for O=C(Cn1cc(C(=O)c2cccs2)c2ccccc21)NCc1cccs1 ?
STK33 kinase inh: -2.6

How did N#Cc1c(F)cccc1N1CCN(Cc2ccc3c(c2)OCO3)CC1 do in these assays?
STK33 kinase inh: -1.6

What do the screens show for `O=C(CN(CC1CCCO1)C(=O)CNS(=O)(=O)c1ccc(Cl)cc1)NC1CCCCC1` (configuration not stated)?
STK33 kinase inh: -0.5

How did c1coc(Cn2c(SCc3nc4ccccc4[nH]3)nnc2-c2cccs2)c1 do in these assays?
STK33 kinase inh: 0.6

What do the screens show for `CNS(=O)(=O)c1cc(Cl)ccc1Sc1ccccc1C(=O)O`?
STK33 kinase inh: -0.5

How did Cc1cccc(CC(=O)Nc2ccc(C(=O)N3CCOCC3)cc2)c1 do in these assays?
STK33 kinase inh: -1.7

How did O=C(N/N=C/c1ccccc1)c1c(O)c2ccccc2[nH]c1=O do in these assays?
STK33 kinase inh: 1.0

Results for COc1ccc(C(=O)/C=C/Nc2ccc(S(=O)(=O)Nc3nc(C)cc(C)n3)cc2)c(OC)c1 ?
STK33 kinase inh: -0.9

Results for COc1cccc(N2CCN(C(=O)CN(C)S(=O)(=O)c3ccc4c(c3)CCC(=O)N4)CC2)c1 ?
STK33 kinase inh: -0.9

Gathered by group: those above containing a halogen.
How did O=S(=O)(NCCCN1CCOCC1)c1ccc(Cl)s1 do in these assays?
STK33 kinase inh: -0.5

How did N#Cc1c(F)cccc1N1CCN(Cc2ccc3c(c2)OCO3)CC1 do in these assays?
STK33 kinase inh: -1.6

What do the screens show for `O=C(CN(CC1CCCO1)C(=O)CNS(=O)(=O)c1ccc(Cl)cc1)NC1CCCCC1` (configuration not stated)?
STK33 kinase inh: -0.5

What do the screens show for `CNS(=O)(=O)c1cc(Cl)ccc1Sc1ccccc1C(=O)O`?
STK33 kinase inh: -0.5

Going on with the list:
What do the screens show for `Cc1cc(NC(=O)CSc2nc(CCC3CCCC3)nc3ccccc23)no1`?
STK33 kinase inh: -0.8

How did CCOC(=O)c1c(NC(=O)CSc2nc3ccccc3[nH]2)sc2c1CC(C)(C)NC2(C)C do in these assays?
STK33 kinase inh: -1.8

How did CN(C)S(=O)(=O)c1cccc(NC(=O)COC(=O)CNC(=O)c2ccccc2F)c1 do in these assays?
STK33 kinase inh: -0.6

Results for COc1cc(OC)cc(C(=O)NCc2cc(C)nc3ccccc23)c1 ?
STK33 kinase inh: -0.6

How did Cc1cc(C)n2ncnc2n1 do in these assays?
STK33 kinase inh: -2.0

How did Cc1cc(-c2csc(N)n2)c(C)n1CCC(C)C do in these assays?
STK33 kinase inh: -1.6

How did CCN(CC)S(=O)(=O)c1ccc(OC)c(-n2cnnn2)c1 do in these assays?
STK33 kinase inh: -1.2

How did CN(C)c1nc(N(C)C)nc(N2CCCCC2)n1 do in these assays?
STK33 kinase inh: -0.6

Results for Cc1ccc(S(=O)(=O)N2CCOCCOCCOCCOCCOCC2)cc1 ?
STK33 kinase inh: 0.0

Results for Cc1oc(-c2ccccc2F)nc1CN1CCC(C(=O)NC2CC2)CC1 ?
STK33 kinase inh: -0.4

How did CCOC(=O)N1CCC(NC(=O)CCCC(=O)O)CC1 do in these assays?
STK33 kinase inh: -0.5

How did Cc1ccsc1C(=O)Nc1nnc(-c2ccco2)o1 do in these assays?
STK33 kinase inh: 0.3

How did O=C(NC1CCCCC1)C(c1ccccc1)N(Cc1cccnc1)C(=O)c1csnn1 (configuration not stated) do in these assays?
STK33 kinase inh: -1.6

How did Cc1cccc(C(=O)N2CCc3ccccc3C2)c1[N+](=O)[O-] do in these assays?
STK33 kinase inh: 0.3

How did Cc1ccc(NC(=O)CN2CCC(NC(=O)C3CCCCC3)CC2)c(Br)c1 do in these assays?
STK33 kinase inh: -0.3

What do the screens show for `NNC(=O)c1cnn(-c2ccccc2)c1-n1cccc1`?
STK33 kinase inh: -0.3

How did COc1ccc(CCN2C(=O)CC(C(N)=O)SC2=Nc2ccccc2)cc1 (configuration not stated) do in these assays?
STK33 kinase inh: -0.1

What do the screens show for `Cc1nc(SCc2nc3ccccc3[nH]2)c2oc3ccccc3c2n1`?
STK33 kinase inh: -1.2

Results for CCCN(CCC)C(=O)C1CCN(c2cc(C)nc3c(-c4ccc(OC)c(OC)c4)c(C)nn23)CC1 ?
STK33 kinase inh: -1.6

What do the screens show for `Cc1ccc(-c2ccc(=O)n(CC(=O)NCCC(C)C)n2)cc1`?
STK33 kinase inh: 0.3

What do the screens show for `COc1cccc(-c2c(C(=O)N/N=C/c3ccsc3)nnn2-c2nonc2N)c1`?
STK33 kinase inh: -1.2

How did O=C(CCc1ccccc1)NC(=S)Nc1ccc(S(=O)(=O)N2CCOCC2)cc1 do in these assays?
STK33 kinase inh: -0.1

Results for CCN1CCN(C(=O)Nc2ccccc2OC)CC1 ?
STK33 kinase inh: 8.6

What do the screens show for `O=CNn1cnc2c(oc3nc(-c4ccccc4)cc(-c4ccco4)c32)c1=O`?
STK33 kinase inh: -0.4

What do the screens show for `Cc1nc2sc3c(c2c(=O)n1NC(=O)CCBr)CCCC3`?
STK33 kinase inh: -1.6

Results for O=S(=O)(c1ccc2c(c1)OCCO2)N1CCN(c2cccc(Cl)c2)CC1 ?
STK33 kinase inh: -0.4

Results for Cc1cc(C)c(S(=O)(=O)N2CCCCC2)c(C)c1-n1ncnn1 ?
STK33 kinase inh: -0.7

What do the screens show for `Cc1ccc(Sc2c(CO)c(-c3ccccc3)nn2C)cc1`?
STK33 kinase inh: 0.5

Results for CCN1CCN(CCCNC(=O)Cn2nc(C)n3nc(-c4ccccc4)cc3c2=O)CC1 ?
STK33 kinase inh: 0.6

What do the screens show for `COc1ccccc1C(O)(C(=O)NNc1ccccc1C)c1ccccc1OC`?
STK33 kinase inh: -1.5

Results for N#CCCn1cc(C=O)c(-c2cccs2)n1 ?
STK33 kinase inh: 0.3

How did COC(=O)c1ccc(CN2CCN(C(C)C)C(CCO)C2)cc1 (configuration not stated) do in these assays?
STK33 kinase inh: -0.4

How did O=C(NCc1cccnc1)c1ccc(COc2ccccc2Br)o1 do in these assays?
STK33 kinase inh: -1.3

What do the screens show for `CCCCN(CC)C(=O)CSc1nc2ccccc2c(=O)n1CC1COc2ccccc2O1` (configuration not stated)?
STK33 kinase inh: -1.2

Results for Cc1c(C(=O)NCc2ccccn2)oc2ccc(S(=O)(=O)N3CCC4(CC3)OCCO4)cc12 ?
STK33 kinase inh: -1.0

How did COc1ccccc1NC(=S)NNC(=O)c1ccc(Cl)cc1Cl do in these assays?
STK33 kinase inh: 0.0

What do the screens show for `Cn1c(C(=O)OCC(=O)NCC2CCCO2)cc2sccc21` (configuration not stated)?
STK33 kinase inh: 0.3

How did O=C(CSc1ccc2ccccc2c1)Nn1cnnc1 do in these assays?
STK33 kinase inh: -1.1

Results for O=C(Cc1ccc(S(=O)(=O)N2CCOCC2)s1)NCC(=O)Nc1ccccc1Br ?
STK33 kinase inh: -7.0

How did O=C1CSC(c2ccc(Cl)cc2Cl)N1c1ccccn1 (configuration not stated) do in these assays?
STK33 kinase inh: -0.4

Results for CNC(=O)[C@H]1O[C@@H](n2cnc3c(NCc4cccc(I)c4)nc(Cl)nc32)[C@H](O)[C@@H]1O ?
STK33 kinase inh: -1.2

What do the screens show for `Cc1csc(NC(=O)c2ccc(C(=O)Nc3nc(C)cs3)cc2)n1`?
STK33 kinase inh: 1.1

What do the screens show for `C/C(=C\C(=O)c1ccc(F)cc1)NCc1ccc2c(c1)OCO2`?
STK33 kinase inh: 0.0

Results for CC(=O)Nc1ccc(CC(=O)NCCC(c2ccccc2)c2ccccc2)cc1 ?
STK33 kinase inh: -1.0

How did N#CCc1ccc(NC(=O)c2ccccc2C(=O)Nc2ccc(CC#N)cc2)cc1 do in these assays?
STK33 kinase inh: 1.6

Results for CC1=C(C(=O)Nc2ccc(C(=O)NC(C)c3ccccc3)cc2)SCCO1 (configuration not stated) ?
STK33 kinase inh: -1.6

Results for COc1ccccc1N1CCN(C(=O)c2cccc(N3C(=O)NC4CC3(C)Oc3ccccc34)c2)CC1 (configuration not stated) ?
STK33 kinase inh: -2.4

How did Cc1nn(C)c(Nc2ccc(Br)cc2)c1Br do in these assays?
STK33 kinase inh: -0.1

Results for CCOC(=O)c1sc(NC(=S)NC(=O)CC(C)C)cc1C ?
STK33 kinase inh: -0.2

What do the screens show for `O=C(CNS(=O)(=O)/C=C/c1ccccc1)OCC(=O)N1CCC(Cc2ccccc2)CC1`?
STK33 kinase inh: -3.4

What do the screens show for `Cc1cccc(-n2c(CNC(=O)c3ccc(S(=O)(=O)N(C)C)cc3)nnc2SCC(=O)Nc2ccc(F)cc2)c1`?
STK33 kinase inh: -0.1

What do the screens show for `Cc1ccc(N2C=Nc3ccc(C)c4nc(C)cc2c34)cc1`?
STK33 kinase inh: 2.5

What do the screens show for `C=CCn1c(CCC(=O)O)ccc1-c1ccc(OC)cc1`?
STK33 kinase inh: -3.6

How did O=C(NCCN1CCOCC1)c1cc(-c2ccco2)on1 do in these assays?
STK33 kinase inh: -2.5

Results for Cc1ccc(C)c(NC(=O)Cn2c([N+](=O)[O-])cnc2C)c1 ?
STK33 kinase inh: -0.4

How did CCOC(=O)C1=C(C)N(CCCC(=O)O)C(=O)NC1c1ccccc1OC(=O)c1cccs1 (configuration not stated) do in these assays?
STK33 kinase inh: -0.7

How did CC(C)n1nnnc1SCC(=O)NCc1cccs1 do in these assays?
STK33 kinase inh: -1.5

How did Cc1cccc(-n2nc(C)c3c(C(=O)O)cc(-c4cccs4)nc32)c1 do in these assays?
STK33 kinase inh: -1.3

How did Cn1c(=O)[nH]c(Nc2ccccc2)c([N+](=O)[O-])c1=O do in these assays?
STK33 kinase inh: 0.2

Results for O=C(CCCN1C(=O)/C(=C\c2ccco2)SC1=S)Nc1ccc(O)cc1C(=O)O ?
STK33 kinase inh: 5.0

Sorted by number of heavy atoms (smallest number first): some entries from above.
Results for Cc1ccc(C)c(NC(=O)Cn2c([N+](=O)[O-])cnc2C)c1 ?
STK33 kinase inh: -0.4

How did Cc1cccc(-n2nc(C)c3c(C(=O)O)cc(-c4cccs4)nc32)c1 do in these assays?
STK33 kinase inh: -1.3

Results for O=C(CCCN1C(=O)/C(=C\c2ccco2)SC1=S)Nc1ccc(O)cc1C(=O)O ?
STK33 kinase inh: 5.0

How did CCOC(=O)C1=C(C)N(CCCC(=O)O)C(=O)NC1c1ccccc1OC(=O)c1cccs1 (configuration not stated) do in these assays?
STK33 kinase inh: -0.7

The listing continues.
How did COc1ccc(CN2CCn3ncc(C(=O)Nc4cc(C)cc(C)c4)c3C2=O)cc1 do in these assays?
STK33 kinase inh: -0.8

Results for C=CCNc1nc(=S)[nH]c2cc(OC)c(OC)cc12 ?
STK33 kinase inh: -0.3

Results for NC(=O)CC(NC(=O)c1ccc(Br)cc1)c1ccc(NC2CCCCCC2)c([N+](=O)[O-])c1 (configuration not stated) ?
STK33 kinase inh: -0.6

What do the screens show for `O=C(Cc1ccc(-n2c(=O)c3ccccc3n(Cc3ccc(F)cc3)c2=O)cc1)NCC1CCCO1` (configuration not stated)?
STK33 kinase inh: -0.9

What do the screens show for `COc1cccc(-c2ccc(NC(=O)C3CCCN(Cc4cnc(C)n4C)C3)cc2)c1` (configuration not stated)?
STK33 kinase inh: -2.7

What do the screens show for `COc1ccc(C(=O)N2CCN(S(=O)(=O)c3ccccc3)CC2)c(OC)c1`?
STK33 kinase inh: 0.7

What do the screens show for `COC(=O)c1cc2nc(-c3ccccc3)cc(C)n2n1`?
STK33 kinase inh: -2.1

What do the screens show for `CN(CCNC(=O)c1cccc(N2CCCC2=O)c1)Cc1ccccc1`?
STK33 kinase inh: -2.8

What do the screens show for `O=c1c2ccccc2c(=O)n(Cc2ccccc2)n1Cc1ccccc1`?
STK33 kinase inh: -0.3

How did COn1c(-n2nc(C)cc2C)nc2ccccc2c1=O do in these assays?
STK33 kinase inh: -1.1

What do the screens show for `COc1ccc(-c2[nH]ncc2CN2CCCN(c3ccccc3)CC2)c(F)c1`?
STK33 kinase inh: -1.0

What do the screens show for `COc1ccc(/C=N/Nc2nnc(C)n2N)cc1OC`?
STK33 kinase inh: -1.7

What do the screens show for `Cc1cc(C)nc(NS(=O)(=O)c2ccc(Br)cc2)n1`?
STK33 kinase inh: -1.1

Results for Cn1c(CCNC(=O)c2ccco2)nc2cc(NS(=O)(=O)c3ccccc3)ccc21 ?
STK33 kinase inh: 0.4

Results for Nn1c(SCC(=O)NC2CCS(=O)(=O)C2)nnc1-c1cccs1 (configuration not stated) ?
STK33 kinase inh: -1.5

How did O=C(NCC(=O)N(Cc1ccccc1)C(C(=O)NCC1CCCO1)c1ccccc1)c1ccco1 (configuration not stated) do in these assays?
STK33 kinase inh: -1.7

What do the screens show for `OC(CCCN1CCCCC1)(c1ccccc1)c1ccccc1`?
STK33 kinase inh: -3.3

Results for COc1cccc(S(=O)(=O)NCC(=O)Nc2ccc(C(C)(C)C)cc2)c1 ?
STK33 kinase inh: 0.5

Results for COc1ccc(NC(=O)CSc2nc3ccccc3c(=O)n2C)cc1 ?
STK33 kinase inh: 0.0

Results for O=C(O)CNC(=O)c1ccccc1Br ?
STK33 kinase inh: -0.6

How did CC(C)N1C(=O)/C(=C\c2nc3ccccc3c(=O)[nH]2)c2ccccc21 do in these assays?
STK33 kinase inh: 0.3

Results for CCC(=O)NCCc1nc2cc(NC(=O)c3ccccc3Cl)ccc2n1C ?
STK33 kinase inh: -0.7

How did Cc1ccc(CNC(=O)c2cc(COc3c(F)cccc3F)on2)s1 do in these assays?
STK33 kinase inh: -0.7

What do the screens show for `COC(=O)[C@@H]1CCCN1C(=O)CCc1nnc(CCc2c[nH]c3ccccc23)o1`?
STK33 kinase inh: 1.1

Results for COc1ccc(C(=O)N2CCN(c3ccc(NC(=O)Cc4ccccc4)cc3)CC2)cc1 ?
STK33 kinase inh: -0.9

Results for Cc1cc(C)c(C)c(S(=O)(=O)N2CCSCC2)c1C ?
STK33 kinase inh: -1.8
